HNF4A DNA FP: change in binding of human HNF4 alpha to DNA. P41235. HNF4a-FITC DNA binding, fluorescence polarization, 1 h. activity change, % at 10 µM. hit rate 0.3% among 360,000. AID 1224865; in the data active = activity change above about 30%, passing the limit was not always enough;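 note: controls were the assay level and a saturating level of protein; the project sought stronger binding though the title names inhibitors; some compounds called inactive have numbers as strong as hits; positive values seem to mean higher polarization but the record does not say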
Target sequence (P41235 whole entry, looked up): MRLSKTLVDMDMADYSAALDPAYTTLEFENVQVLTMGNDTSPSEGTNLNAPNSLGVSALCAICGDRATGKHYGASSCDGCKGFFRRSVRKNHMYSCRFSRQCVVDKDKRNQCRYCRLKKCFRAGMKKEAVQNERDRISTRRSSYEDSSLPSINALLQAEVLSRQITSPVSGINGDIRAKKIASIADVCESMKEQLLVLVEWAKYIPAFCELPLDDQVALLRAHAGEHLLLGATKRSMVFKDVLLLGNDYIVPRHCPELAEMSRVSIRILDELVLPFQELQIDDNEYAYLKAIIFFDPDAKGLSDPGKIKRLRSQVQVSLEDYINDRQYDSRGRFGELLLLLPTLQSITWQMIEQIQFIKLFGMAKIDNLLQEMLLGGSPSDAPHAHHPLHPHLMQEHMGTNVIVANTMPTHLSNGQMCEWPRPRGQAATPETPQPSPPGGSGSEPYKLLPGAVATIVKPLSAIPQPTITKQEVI
Vif A3G: HIV-1 Vif–A3G interaction blockers – biochemical, TR-FRET, GST-Vif 1-94, biotin-A3G peptide, dose response retest, primary screen (AID 1117319). TR-FRET GST-Vif / biotin-A3G peptide binding; higher % means a stronger effect; test concentration not given here; strong numbers were not always called active. inhibition, %; hits with a dose series show IC50 in µM. hit rate 0.57% among 260,000;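 active = above the screen mean plus three standard deviations and confirmed in dose response; inconclusive = results disagree or hit not tested in dose response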;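 note: Vif residues 1-94 fused to GST binding biotinylated APOBEC3G peptide 110-148; 0% = full assay without inhibitor and 100% = GST in place of GST-Vif; retest series ran down from 100 µM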
Ecoli growth: inhibitors of Escherichia coli growth; hit rate 0.21% among 330,000; OD600, 23 h; stronger effect = lower value; AID 1053175; OD600 absorbance (test concentration not listed);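 active = OD600 absorbance below the run mean of sample wells minus 3.6 SD, in any replicate, cut at about 0.56 in these data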;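 note: stock transfer was 300 nL into about 60 µL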
FGF22 binding: binders of recombinant human FGF22 by thermal shift; SYPRO orange fluorescence; percent of sucrose octasulfate shift, DMSO zero; calls only at 9.99 µM; Q9HCT0; AID 651658; hit rate 1.5% among 340,000;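 active = melting point raised past a set limit in the mean and every replicate; inconclusive = no clear call; three in four hits are not shown here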
Target sequence (Q9HCT0 whole entry, looked up): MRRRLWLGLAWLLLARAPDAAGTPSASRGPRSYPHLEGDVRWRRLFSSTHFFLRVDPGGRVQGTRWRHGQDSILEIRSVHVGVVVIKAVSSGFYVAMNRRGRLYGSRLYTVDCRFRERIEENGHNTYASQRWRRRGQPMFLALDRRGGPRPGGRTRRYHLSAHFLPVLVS
UCH37 inh: blocks the human deubiquitinase UCH37. inhibition, % (test concentration not listed). purified proteasome/UCH37, Ub-AMC cleavage fluorescence. hit rate 0.33% among 330,000. Q9Y5K5. AID 588478;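 active = mean of two replicates above 20%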;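 note: 0% = compound-free wells with enzyme and 100% = wells lacking proteasome; stock transfer was 100 nL into about 20 µL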
Target sequence (Q9Y5K5 whole entry, looked up): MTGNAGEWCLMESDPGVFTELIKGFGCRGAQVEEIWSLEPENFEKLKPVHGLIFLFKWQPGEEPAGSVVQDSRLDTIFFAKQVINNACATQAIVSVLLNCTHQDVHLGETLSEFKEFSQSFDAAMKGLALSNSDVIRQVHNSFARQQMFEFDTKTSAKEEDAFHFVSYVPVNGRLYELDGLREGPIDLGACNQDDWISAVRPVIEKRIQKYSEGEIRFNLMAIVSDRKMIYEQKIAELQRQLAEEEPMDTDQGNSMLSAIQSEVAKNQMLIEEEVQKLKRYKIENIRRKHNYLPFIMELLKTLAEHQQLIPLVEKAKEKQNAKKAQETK
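Material: human UCH37 enzyme supplied as purified proteasome complex / Amount: 0.15 nM proteasome as dispensed / Buffer or medium: pH 7.4 Tris-HCl (50 mM) with ovalbumin, ATP-MgCl2, DTT / Times: preincubation 30 min, reaction 25 min, room temperature / Technique: AMC fluorescence from Ub-AMC cleavage, excitation 355 nm, emission 460 nm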
MLL AF4-AF9 inh: inhibitors of human MLL-AF4/AF9 interaction; P42568; AlphaScreen, biotin-AF4 peptide binding to FLAG-AF9; inhibition, % at 10 µM; hit rate 0.47% among 350,000; AID 651704;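 active = every replicate reaching a set inhibition limit, whatever the replicate mean, cut at about 25% in these data; inconclusive = mean inhibition reaches that limit but some replicates miss it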;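 note: 0% = plate neutral control median and 100% = total signal loss; the record names both 10 and 1 µM as test concentration; the first replicate is given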
RanGTP-Impb inh: disruptors of Ran-importin-beta complex formation – biochemical, FRET, CFP-Ran, YFP-importin-beta, homogeneous, primary screen. hit rate 1.1% among 300,000. cell-free CFP-Ran/YFP-importin-beta FRET ratio. inhibition, % (test concentration not listed);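 active = most replicates above 15%; inconclusive = exactly half above 15%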;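 note: 0% = DMSO wells and 100% = Ran loaded with GDP instead of GTP; wells of about 40 µL received 100 nL stock; the first replicate is given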
* hit, by the source's call; i = inactive; ? = inconclusive; nt = no result given; + = active, no number; & = joins results of further samples. This is a subset, so the mix of outcomes need not match the whole.

SMILES | HNF4A DNA FP | Vif A3G | Ecoli growth | FGF22 binding | UCH37 inh | MLL AF4-AF9 inh | RanGTP-Impb inh
CNC(=S)N/N=C/c1cc(C)n(-c2ccc(Cl)c(Cl)c2)c1C | 4.1 | 11% | nt | i | nt | 9.6 | 0.3
CSc1nsc(SCC(=O)Nc2ccc(C(=O)O)cc2)n1 | 2.5 | nt | 0.64 | i | -0.3 | -1.5 | -4.2
CCN(CC)CCCNC(=O)C1CCC(CNS(=O)(=O)c2c(C)cc(C)cc2C)CC1 (stereo not given) | -2.5 | -5% | 0.69 | i | 6.2 | -5.0 | -2.9
CN(C(=O)COC(=O)COc1ccc2ccccc2c1)c1ccccc1 | -2.4 | 0% | nt | i | nt | -2.0 | nt
COc1ccc(C(=O)NC(=S)N2CCCCC2)cc1[N+](=O)[O-] | -4.3 | -2% | 0.62 | i | 3.0 | -7.0 | 3.3
CCOC(=O)N1CCN(c2cccc(C)c2C)CC1 | 0.4 | -2% | 0.68 | i | 3.4 | -84 | 2.3
O=c1cc(-c2ccccc2)oc2ccc(Cl)cc12 | 6.2 | -13% | nt | i | nt | -0.6 | nt
CCCc1cc(=O)[nH]c(SCC(=O)Nc2nonc2N)n1 | -1.9 | 0% | 0.68 | nt | 2.4 | nt | -6.0
CCOC(=O)C1(CCOc2ccccc2)CCN(Cc2cccc(F)c2)CC1 | 2.9 | nt | 0.64 | i | 1.7 | -1.2 | 3.3
O=C(O)c1ccc2c(c1)-c1cc(C(=O)O)ccc1S2(=O)=O | 2.4 | -4% | 0.64 | i | 6.4 | -1.0 | -5.2
Cc1nc(-c2cccc(-c3noc(C)n3)c2)no1 | -4.6 | ? | 0.73 | nt | 1.2 | nt | 2.4
Cc1cc(/C=C(\C#N)C(=O)Nc2ccccc2)c(C)n1-c1cccnc1 | -2.8 | nt | nt | i | -2.5 | 0.5 | -2.7
C/C(=C\C(=O)c1ccc(Cl)cc1)Nc1ccc(N2CCOCC2)cc1 | 1.4 | 16% | 0.68 | nt | 5.9 | nt | -0.4
O=C(c1ccco1)N1CCN(C(=S)Nc2ccc(Br)cc2Cl)CC1 | -0.8 | nt | 0.67 | i | 1.6 | -3.2 | 6.1
O=C(OC1CCCCC1)c1cc2ccccc2oc1=O | 15 | -5% | 0.67 | i | -17 | 1.2 | -1.3
CN(C(=O)c1ccncc1)C1CCCN(Cc2ccccc2F)C1 (stereo not given) | 2.8 | -4% | 0.73 | i | 2.7 | -1.4 | 0.5
CCCOc1ccc(F)cc1-c1cc(C(=O)Nc2ccc(F)cc2)[nH]n1 | 0.1 | nt | nt | i | nt | 1.0 | nt
Cc1ccccc1C(=O)OC1CCN(C)CC1 | 4.0 | 0% | 0.68 | i | 6.2 | -3.5 | -5.6
O=C(c1ccccc1)N1CCN(c2ccccc2F)CC1 | -2.7 | 4% | 0.7 | nt | 1.7 | nt | ?
CC1=C(C(=O)OCc2ccccc2)C(c2ccc3ccccc3c2)NC(=O)N1CCCC(=O)O (stereo not given) | -3.4 | nt | 0.69 | i | 3.1 | -0.3 | 1.6
CC(C)N=C(NC#N)SCc1ccc(F)cc1 | -2.0 | 7% | 0.71 | nt | 1.0 | nt | ?
COc1ccc(CSC2=CS(=O)(=O)c3ccccc3N2)cc1 | -1.3 | -4% | 0.66 | i | -0.8 | -0.1 | 1.7
COc1ccc(-c2nc3cc(C)ccn3c2NCc2ccc3c(c2)OCO3)cc1 | -0.1 | nt | 0.68 | i | -240 | 12 | ?
CC(C)Cn1cc(C(=O)NCCCOC(C)C)c2c3ccccc3n(C)c2c1=O | 2.9 | -4% | 0.74 | nt | -33 | nt | 4.7
COc1ccc(C(=O)N2CCN(c3ccc(NC(=O)c4cccnc4)cc3)CC2)cc1 | -2.9 | 5% | 0.73 | i | 4.4 | -2.0 | 1.9
CC(=O)Nc1ccc(Oc2cc(NC(C)=O)cc([N+](=O)[O-])c2)cc1 | -0.3 | 6% | 0.68 | i | 1.1 | -2.0 | ?
COc1ccccc1CNC(=O)C[n+]1ccccc1 | -1.7 | 0% | 0.77 | nt | 2.7 | nt | 1.5
Cc1cnc(C(=O)OCc2c(C)cc(C(C)(C)C)cc2C)cn1 | 2.7 | -7% | 0.72 | i | 3.4 | 0.7 | 4.2
O=C1NC(c2ccc(Cl)cc2)=COc2ccccc21 | -0.3 | -4% | 0.72 | i | 4.0 | 0.2 | 1.9
COC(=O)c1cc2cc(Cl)ccc2nc1SC | 2.5 | -232% | 0.67 | i | -1.1 | nt | -0.1
O=C(c1ccco1)N1CCN=C1SCc1cccnc1 | -0.7 | -2% | 0.7 | nt | 0.3 | nt | 4.0
CN(C)C=Nc1ncc2c3ccccc3n(CCN(C)C)c2c1C#N | -3.9 | 3% | 0.69 | nt | -2.0 | nt | 8.8
CCOc1ccc(-c2cc(CCCC(=O)NCc3ccco3)no2)cc1 | -1.9 | -2% | 0.78 | i | 3.3 | -2.7 | 1.0
N/C(=N\c1nc2ccccc2o1)NC(=O)c1ccccc1NC(=O)c1ccccc1 | -1.4 | -3% | 0.77 | nt | -40 | nt | nt
Cc1ccc2c(c1)c1c3n2CCCNC3CCC1 (stereo not given) | 1.8 | 17% | 0.69 | nt | 1.0 | 8.4 | ?
Cc1cccc(Oc2ncnc3oc(-c4ccccc4)cc23)c1C | 3.9 | -8% | 0.67 | nt | -13 | nt | 0.4
COc1ccccc1NC(=O)c1cc(C)oc1C | 2.3 | -5% | 0.69 | i | 0.5 | -0.6 | 4.5
O=C(NC1CCCCCC1)c1cccc(S(=O)(=O)N2CCOCC2)c1 | 4.2 | -7% | 0.64 | i | 2.6 | -2.7 | nt
COc1cc(C(=O)NC(=S)N(CCc2ccccc2)CCc2ccccc2)cc(OC)c1OC | 1.9 | 17% | 0.69 | nt | 4.2 | nt | 2.0
CC1CCCC(C)N1NC(=O)c1ccc(Cl)c(S(N)(=O)=O)c1 (stereo not given) | 1.9 | 1% | 0.7&0.65 | i | 4.9 | 2.3 | 2.6

2 compounds picked at random from the list so far, as already listed:
SMILES | HNF4A DNA FP | Vif A3G | Ecoli growth | FGF22 binding | UCH37 inh | MLL AF4-AF9 inh | RanGTP-Impb inh
Cc1cnc(C(=O)OCc2c(C)cc(C(C)(C)C)cc2C)cn1 | 2.7 | -7% | 0.72 | i | 3.4 | 0.7 | 4.2
COc1ccc(CSC2=CS(=O)(=O)c3ccccc3N2)cc1 | -1.3 | -4% | 0.66 | i | -0.8 | -0.1 | 1.7

Next entries:
SMILES | HNF4A DNA FP | Vif A3G | Ecoli growth | FGF22 binding | UCH37 inh | MLL AF4-AF9 inh | RanGTP-Impb inh
COc1ccc2oc(=O)c(C(=O)O)cc2c1 | 0.2 | 4% | 0.71 | nt | -199 | nt | 7.5
O=C(O)c1ccc(CSCc2ccco2)cc1 | 0.0 | 3% | 0.77 | nt | -1.6 | nt | 4.0
O=C(NCC(=O)N1CCN(c2ccc([N+](=O)[O-])cc2)CC1)c1ccco1 | 5.9 | -5% | 0.71 | nt | 6.6 | -5.7 | nt
COc1cc(C=O)ccc1OCc1cn(CC(=O)c2ccc(O)cc2)nn1 | -0.6 | nt | nt | i | nt | 0.1 | nt
Cc1ccc(NC(=O)C2CCCN2C(=O)Oc2ccccc2)c(C)c1 (stereo not given) | -0.4 | 4% | 0.7 | + | 3.4 | -0.5 | 4.5
O=C(Oc1cccc(-c2cnc3ccccc3n2)c1)c1ccco1 | -2.3 | -12% | 0.77 | nt | 3.9 | nt | -0.6
O=C(CCCN1C(=O)c2cccc3cccc(c23)C1=O)N1CCN(c2ccccn2)CC1 | -5.9 | nt | 0.69 | nt | 0.8 | nt | 2.5
O=C(CSc1nc2ccccc2n1CC(=O)N1CCOCC1)N1CCCC1 | 2.3 | 30% | 0.72 | nt | 1.2 | nt | 2.0
Cc1ccc2cccc(N=Cc3c(C)[nH]n(-c4ccccc4)c3=O)c2n1 | 5.0 | nt | 0.66 | nt | 10 | nt | 0.1
Cc1nnc(SCC(=O)Nc2cc(C(F)(F)F)ccc2N2CCOCC2)o1 | -2.0 | 0% | 0.71 | nt | 5.8 | nt | 4.2
O=C1C(=O)N(CCCN2CCOCC2)C(c2ccc(F)cc2)/C1=C(/O)c1ccccc1 (stereo not given) | -1.2 | -8% | 0.68 | i | 23* | -3.3 | 4.0
CC(C)Cc1nc2oc3c(NCc4cccnc4)ncnc3c2c2c1CCC2 | -3.2 | -1% | 0.74 | nt | -58 | nt | 5.2
O=C(Nc1ccccc1)c1cc(S(=O)(=O)NCc2ccncc2)ccc1Cl | 1.5 | nt | 0.69 | i | 1.7 | 0.8 | 2.7
O=C(CNC(=S)N(CCCN1CCOCC1)Cc1cccs1)NC1CCCCCCC1 | 1.9 | nt | 0.69 | nt | 3.9 | nt | -1.6
COc1ccc(C2=NS(=O)(=O)N(C)C(C(=O)Nc3ccc(OC)c(OC)c3)=C2)cc1 | 3.5 | nt | 0.65 | i | 5.2 | 7.4 | 3.9
COc1ccc(S(=O)(=O)NC2(C(F)(F)F)N=C(c3ccccc3)NC2=O)cc1 (stereo not given) | 3.2 | ? | 0.71 | i | 0.8 | -1.2 | -2.1
Cc1ccc(NC(=O)c2ccc(S(=O)(=O)N3CCOCC3)cc2)c(C)c1 | 4.1 | nt | 0.67 | i | 0.9 | -3.7 | -2.3
O=C(Nc1ccccc1F)c1cc2c(s1)-c1ccccc1S(=O)(=O)C2 | -1.9 | nt | 0.75 | i | -31 | 2.5 | 2.1
O=C(NNC1CC(=O)N(c2ccc3c(c2)OCCO3)C1=O)c1ccccc1 (stereo not given) | -1.7 | -3% | 0.69 | nt | 1.0 | nt | 0.0
COc1ccc(N2CCN(CCCNC(=O)C3CCN(S(=O)(=O)N4CCOCC4)CC3)CC2)cc1 | 5.1 | 13% | 0.69 | i | 2.6 | 14 | -0.4
CCCCC[C@@H]1C=C(C(=O)O)[C@H](c2ccc(CC)cc2)N1S(=O)(=O)c1ccc(C)cc1 | -1.2 | 15% | 0.67 | i | 2.7 | 1.1 | nt
O=C1N2c3ccccc3CCc3cccc(c32)C1(O)C(F)(F)F (stereo not given) | 0.3 | 3% | 0.63 | i | 1.7 | -4.0 | 4.3
Cc1ccc(Cl)c(NC(=O)CN2CCN(C=O)CC2)c1 | nt | 5% | 0.64 | nt | 1.7 | nt | 2.0
COc1ccc(C2=NS(=O)(=O)N(C)C(C(=O)N(C)Cc3ccccc3)=C2)cc1OC | -4.6 | -13% | 0.67 | i | 4.0 | -1.0 | 3.5
O=S(=O)(Nc1nc2ccccc2nc1NCCO)c1cccc(Cl)c1 | -0.7 | ? | 0.67 | nt | -11 | nt | 3.4
COc1ccc(C(=O)CSc2nc(=O)n3ccc(C)cc3n2)cc1 | 5.6 | -8% | nt | i | nt | 0.5 | nt
O=S(=O)(NN1CCOCC1)c1ccc(Br)cc1 | -2.5 | nt | 0.72 | i | 1.1 | -10 | nt
Fc1ccc(CSc2nncn2NCc2ccccc2)cc1 | 2.1 | -3% | 0.67 | nt | 5.8 | nt | 7.5
O=C(CN1CCN(S(=O)(=O)c2ccc(F)cc2)CC1)Nc1ccc(F)cc1F | 4.6 | -6% | 0.63 | i | -0.8 | -1.4 | -2.2
Cc1ccccc1CNc1nc(N)n(-c2ccccc2)n1 | -6.4 | -4% | 0.69 | i | 4.3 | -0.4 | -5.2
COc1ccc(NC(=O)c2cc3ccccc3cc2O)cc1 | 2.0 | 17% | 0.57 | i | 2.4 | -2.3 | 8.0
O=S1OCCN1c1ccccc1 (stereo not given) | 5.8 | nt | nt | i | -1.1 | -11 | ?

Only Ecoli growth and Vif A3G, for some of the entries so far:
Compound | Ecoli growth | Vif A3G
O=S(=O)(Nc1nc2ccccc2nc1NCCO)c1cccc(Cl)c1 | 0.67 | ?
COc1ccc(C(=O)CSc2nc(=O)n3ccc(C)cc3n2)cc1 | nt | -8%
